Ecoli rRNA inh: inhibitors of bacterial rRNA selective over humanized ribosomes. E. coli WT GFP vs humanized-ribosome RFP mutants, fluorescence, 24 h; hits give low values; DMSO median 0, no signal -100. 350,000 compounds, 1.6% hits. GFP signal change (wild-type ribosome), % (no concentration beside the values);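 active = significant combined selectivity score with lowered wild-type GFP, culture density cut under 30%, mutant RFP and density less affected; inactive = any of these conditions unmet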; also: one replicate is shown; some compounds called inactive have numbers as strong as hits
Ecoli rRNA inh OD600: recorded beside Ecoli rRNA inh, whose call it bears; OD600 change, %; measured here: OD600 growth;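 optical density of the mix in the first replicate; 0 = DMSO median and -100 = no signal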
Ecoli rRNA inh RFP: recorded beside Ecoli rRNA inh, whose call it bears; RFP signal change, %; measured here: RFP humanized mutant strains;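 first replicate; 0 = DMSO median and -100 = no signal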
* hit, by the source's call; & = joins results of further samples.

Ecoli rRNA inh | Ecoli rRNA inh OD600 | Ecoli rRNA inh RFP | mol
-3 | 0 | 2.6 | C[C@@H]1CN([C@@H](C)CO)C(=O)c2cc(NC(=O)NC3CCCCC3)ccc2O[C@@H]1CN(C)C(=O)Nc1ccccc1
-9 | -15 | 6.1 | C[C@H](CO)N1C[C@H](C)[C@@H](CN(C)S(=O)(=O)c2cccs2)Oc2ccc(NS(=O)(=O)c3cccs3)cc2C1=O
3 | 0 | 2.0 | C[C@@H]1CCCCO[C@@H](CN(C)Cc2ccc(C(F)(F)F)cc2)[C@@H](C)CN([C@@H](C)CO)C(=O)c2cc(NC(=O)NC3CCCCC3)ccc2O1
2 | -3 | 1.4 | O=C(c1cccc(F)c1)N1CC(=O)N2[C@@H](CO)[C@H](c3ccc(-c4ccccc4)cc3)[C@@H]2C1
-2 | -4 | 0.5 | C[C@@H]1CN([C@H](C)CO)C(=O)c2c(c3ccccc3n2C)-c2ccccc2CO[C@@H]1CN(C)S(=O)(=O)c1ccsc1
1 | 0 | 1.4 | CO[C@@H]1CN(C)C(=O)c2cc(NC(C)=O)ccc2OC[C@@H](C)N(Cc2cncnc2)C[C@@H]1C
0 | 1 | -3.8 | COc1cccc(CNC(=O)C[C@@H]2CC[C@@H](NC(=O)C3CCC3)[C@H](CO)O2)c1
1 | -1 | 0.0 | COc1ccc(NC(=O)Nc2ccc3c(c2)C(=O)N([C@@H](C)CO)C[C@H](C)[C@H](CN(C)Cc2ccccc2)O3)cc1
-4 | -1 | 3.5 | Cc1ccccc1-c1cnc2c(c1)C(=O)N([C@H](C)CO)C[C@H](C)[C@H](CN(C)Cc1ccccc1F)O2
-2 | -6 | -1.8 | CN(C)C(=O)C[C@@H]1C[C@H]2c3cc(NS(=O)(=O)c4ccc(F)cc4)ccc3O[C@H]2[C@@H](CO)O1
3 | -14 | -0.2 | O[C@@H]1CN(CC2CCCCC2)[C@@H](c2ccc(Cl)cc2)C[C@H]1n1cc(C2CC2)nn1
-5 | -33 | 8.2 | C[C@H](CO)N1C[C@H](C)[C@H](CN(C)C(=O)NC2CCCC2)Oc2ncc(C#CC3CCCCC3)cc2C1=O
-7 | -4 | 3.3 | CCC(=O)N1CC[C@@H]2[C@H]1c1cc(C#Cc3ccccc3F)ccc1N[C@@H]2CO
2&0 | 8&12 | -0.5&1.0 | O=C(C[C@@H]1C[C@H]2c3cc(NC(=O)Nc4ccccc4F)ccc3O[C@H]2[C@H](CO)O1)NCC(F)(F)F
0 | -3 | -1.4 | C[C@@H]1CN([C@H](C)CO)C(=O)Cc2cc(NC(=O)Nc3ccc(C(F)(F)F)cc3)ccc2O[C@H]1CN(C)Cc1ccc(C(=O)Nc2ccccc2N)cc1
8 | 18 | -1.5 | O=C(C[C@@H]1CC[C@H]2[C@@H](COC[C@@H](O)CN2C(=O)c2ccncc2)O1)NCc1cccc(F)c1
2 | 1 | -1.8 | CC(C)NC(=O)N(C)C[C@H]1OCCCC[C@@H](C)Oc2ccc(NC(=O)Nc3cccc4ccccc34)cc2C(=O)N([C@H](C)CO)C[C@@H]1C
-1 | -6 | -4.2 | C[C@H](NC(=O)C[C@@H]1C=C[C@@H](NC(=O)C2CCC2)[C@H](CO)O1)c1ccccc1
8 | 0 | 4.3 | C[C@H](CO)N1C[C@H](C)[C@H](CN(C)S(=O)(=O)c2ccc(C#N)cc2)Oc2ncc(C#Cc3cccc(F)c3)cc2C1=O
18 | 13 | 0.3 | CCCCn1nnnc1C1(C)CCC(=O)N1Cc1ccc(OC)cc1 (stereo unspecified)
1 | 6 | -0.1 | C[C@H]1CCCCO[C@H](CN(C)S(=O)(=O)c2ccc(Cl)cc2)[C@@H](C)CN([C@@H](C)CO)C(=O)c2cc(NC(=O)Nc3ccccc3)ccc2O1
-2 | -3 | 1.7 | Cc1noc(C)c1NC(=O)Nc1ccc2c(c1)C(=O)N([C@@H](C)CO)C[C@H](C)[C@@H](CN(C)C(=O)Cc1ccccc1)OCCCC[C@H](C)O2
-6 | -8 | -1.8 | Cc1ccc(S(=O)(=O)N(C)C[C@@H]2Oc3c(NC(=O)c4cc(C)nn4C)cccc3C(=O)N([C@H](C)CO)C[C@@H]2C)cc1
-58 | -75 | -18 | O=C(C[C@@H]1CC[C@@H]2[C@H](COC[C@H](O)CN2C(=O)Nc2ccc(Cl)c(Cl)c2)O1)NCc1ccc(Cl)c(Cl)c1
-1 | 6 | -3.0 | Cc1cccc(-c2ccccc2[C@H]2[C@@H](C#N)N(c3ncc(-c4ccccc4)s3)[C@H]2CO)c1
-4 | -8 | 0.6 | COc1ccc(NC(=O)Nc2cccc3c2O[C@@H](CN(C)C(=O)NC(C)C)[C@@H](C)CN([C@H](C)CO)C3=O)cc1
2 | 3 | -1.2 | O=C(O)C[C@@H]1CC[C@H](NC(=O)Nc2ccccc2)[C@H](CO)O1
1 | -4 | -2.8 | C[C@@H]1CN([C@H](C)CO)C(=O)Cc2cc(NC(=O)CCCCCC(=O)Nc3ccccc3N)ccc2O[C@H]1CN(C)C(=O)Nc1ccc2c(c1)OCO2
-1 | -5 | -2.7 | CNC[C@@H]1Oc2c(NC(=O)Nc3ccc(OC)cc3)cccc2C(=O)N([C@@H](C)CO)C[C@@H]1C
0 | 5 | -2.2 | CO[C@@H]1CN(C)C(=O)c2ccc(NC(C)=O)cc2OC[C@H](C)N(Cc2ccccc2C(=O)O)C[C@H]1C

Reprinted from the part before: 6 compounds, then new ones.
Ecoli rRNA inh | Ecoli rRNA inh OD600 | Ecoli rRNA inh RFP | mol
-1 | 6 | -3.0 | Cc1cccc(-c2ccccc2[C@H]2[C@@H](C#N)N(c3ncc(-c4ccccc4)s3)[C@H]2CO)c1
-4 | -8 | 0.6 | COc1ccc(NC(=O)Nc2cccc3c2O[C@@H](CN(C)C(=O)NC(C)C)[C@@H](C)CN([C@H](C)CO)C3=O)cc1
2 | 3 | -1.2 | O=C(O)C[C@@H]1CC[C@H](NC(=O)Nc2ccccc2)[C@H](CO)O1
1 | -4 | -2.8 | C[C@@H]1CN([C@H](C)CO)C(=O)Cc2cc(NC(=O)CCCCCC(=O)Nc3ccccc3N)ccc2O[C@H]1CN(C)C(=O)Nc1ccc2c(c1)OCO2
-1 | -5 | -2.7 | CNC[C@@H]1Oc2c(NC(=O)Nc3ccc(OC)cc3)cccc2C(=O)N([C@@H](C)CO)C[C@@H]1C
0 | 5 | -2.2 | CO[C@@H]1CN(C)C(=O)c2ccc(NC(C)=O)cc2OC[C@H](C)N(Cc2ccccc2C(=O)O)C[C@H]1C
1 | 2 | -1.1 | O=C(Cc1ccncc1)Nc1ccc2c(c1)[C@@H]1C[C@H](CC(=O)N3CCc4ccccc4C3)O[C@@H](CO)[C@@H]1O2
2 | -8 | -2.8 | Cc1cccc(CN(C)C[C@@H]2Oc3ncc(Br)cc3C(=O)N([C@H](C)CO)C[C@@H]2C)c1
3 | 17 | 0.4 | O=C(NC1CCC1)[C@H]1[C@H](CO)[C@H]2Cn3c(cccc3=O)[C@@H]1N2CC1CCCCC1
2 | 0 | -0.8 | C[C@H](CO)N1C[C@H](C)[C@@H](CN(C)Cc2cncnc2)Oc2ncc(C#Cc3ccccn3)cc2C1=O
-11 | 2 | -0.5 | O=C(Cc1cccc([N+](=O)[O-])c1)Nc1ccccc1
1 | -1 | 5.9 | COc1ccc2c3c([nH]c2c1)[C@@H](CO)N(CC1CC1)CC31CCN(C(=O)c2ccccc2F)CC1
3 | 11 | -9.3 | CC1COc2c3ccccc3nn21 (stereo unspecified)
3 | 7 | 1.5 | CC1(C(=O)NS(=O)(=O)c2cccc(Cl)c2)CCN1C(=O)c1cccc2ccccc12 (stereo unspecified)
0 | 4 | -2.2 | O=C(c1cccc(F)c1)N1C[C@@H]2[C@H](c3ccccc31)[C@H](CO)N2C(=O)C1CCCC1
-3 | -11 | 18 | CNC[C@H]1Oc2cc(C#Cc3cccc(OC)c3)ccc2S(=O)(=O)N([C@H](C)CO)C[C@@H]1C
1 | -6 | 4.6 | C[C@@H]1CN([C@H](C)CO)C(=O)c2cc(NS(C)(=O)=O)ccc2O[C@@H](C)CCCCO[C@H]1CN(C)Cc1ccc(C(F)(F)F)cc1
0 | 0 | -3.1 | COc1ccc(NC(=O)N(C)C[C@H]2Oc3ccc(NC(=O)C4CCCCC4)cc3C(=O)N([C@@H](C)CO)C[C@@H]2C)cc1
-34* | -26* | -3.8* | O=C(C[C@H]1CC[C@@H]2[C@H](COC[C@@H](O)CN2C(=O)Nc2cc(Cl)cc(Cl)c2)O1)N1CCOCC1
8 | 17 | 1.2 | CC(C)C#Cc1ccc([C@@H]2[C@H]3CN(C(=O)NC4CCCCC4)CC(=O)N3[C@H]2CO)cc1
0 | -2 | -1.1 | CO[C@@H]1CN(C)C(=O)c2cc(NC(C)=O)ccc2OC[C@@H](C)N(C(=O)c2ccccc2)C[C@H]1C
4 | 5 | -3.7 | Cc1ccc(S(=O)(=O)Nc2cccc3c2O[C@H](CN(C)Cc2ccc(C(=O)O)cc2)[C@@H](C)CN([C@H](C)CO)C3=O)cc1
4 | -13 | 4.0 | O=C(Nc1ccccc1F)N1CC(=O)N2[C@H](CO)[C@@H](c3ccc(C#CC4CC4)cc3)[C@@H]2C1
1 | 3 | -0.7 | CN1C(=O)c2cc(NC(=O)c3cccc(Cl)c3)ccc2OC[C@@H]2O[C@@H](CC(=O)NC3CCCCC3)CC[C@@H]21
0 | 9 | 0.5 | CCCNC(=O)[C@@H]1[C@@H](CO)[C@@H]2Cn3c(ccc(-c4cccc(OC)c4)c3=O)[C@H]1N2CCC
-1 | 0 | -0.9 | Cc1ccc(NC(=O)Nc2ccc3c(c2)C(=O)N(C)[C@@H]2CC[C@H](CC(=O)O)O[C@@H]2CO3)cc1
-54 | -76 | -5.7 | CC(C)C#Cc1ccc([C@@H]2[C@@H](CO)N3CCCCN(C(=O)c4ccc5c(c4)OCO5)C[C@H]23)cc1
1 | 3 | -1.7 | C/C=C/c1ccc([C@H]2[C@@H](CO)N[C@@H]2CN(CC)C(=O)CN2CCOCC2)cc1
3 | 2 | -1.1 | CCCNC(=O)[C@H]1[C@H](CO)[C@H]2Cn3c(cccc3=O)[C@H]2N1C(=O)CC1CC1
-2 | -5 | 0.9 | C[C@@H]1CN([C@H](C)CO)C(=O)c2cc(NS(C)(=O)=O)ccc2O[C@@H]1CN(C)Cc1ccc(C(F)(F)F)cc1
3 | 0 | -3.0 | COc1ccccc1S(=O)(=O)N[C@H]1CC[C@@H](CC(=O)N2CCOCC2)O[C@H]1CO
-5 | -8 | -2.4 | Cn1c(=O)c2cc(NC(=O)NCCc3cccs3)ccc2n1Cc1cccc(C(F)(F)F)c1
5 | 21 | -2.7 | CC[C@H]1C/C=C\C[C@H](CC)NC(=O)[C@@H](C)CC(=O)N1
1 | -2 | 0.5 | CO[C@@H]1CN(C)C(=O)c2ccc(NC(=O)CC(F)(F)F)cc2OC[C@H](C)N(CC2CC2)C[C@@H]1C
1 | 4 | 2.5 | Cc1noc(C)c1S(=O)(=O)Nc1ccc2c(c1)C(=O)N([C@H](C)CO)C[C@H](C)[C@@H](CN(C)C(=O)NC1CCCCC1)OCCCC[C@H](C)O2
1 | 7 | -1.7 | COc1ccc(S(=O)(=O)N(C)C[C@@H]2OCCCC[C@H](C)Oc3ccc(NC(=O)c4ccccc4)cc3C(=O)N([C@H](C)CO)C[C@H]2C)cc1
2 | -2 | -2.2 | CO[C@@H]1CN(C)C(=O)c2cc(NC(=O)C3CCOCC3)ccc2OC[C@H](C)N(Cc2nccs2)C[C@H]1C
-4 | 8 | -2.2 | C[C@H]1CN([C@@H](C)CO)C(=O)c2cc(NC(=O)Nc3ccc4c(c3)OCO4)ccc2O[C@H]1CN(C)C(=O)Nc1ccc2c(c1)OCO2
-1 | 0 | -2.0 | O=C(C[C@H]1C=C[C@H](NS(=O)(=O)c2cccc(F)c2)[C@H](CO)O1)N1CCCCC1
-3 | -12 | 3.8 | C[C@@H]1CN([C@H](C)CO)C(=O)c2cccc(NC(=O)Nc3cccc4ccccc34)c2O[C@@H]1CN(C)CC1CCCCC1
6 | 15 | 26 | c1ccc(COc2ccc(-c3cc4nc(NCCOc5ccccc5)ccn4n3)cc2)cc1
3 | 8 | 1.4 | C[C@@H]1CN([C@H](C)CO)C(=O)c2cc(NC(=O)Cn3cnnn3)ccc2O[C@H]1CN(C)S(C)(=O)=O
0 | 3 | -0.7 | O=C([C@H]1[C@H](CO)[C@H]2Cn3c(cccc3=O)[C@H]2N1C(=O)CC1CC1)N1CCc2ccccc2C1
-18 | -18 | -5.1 | COc1ccc(NC(=O)C2(C)CCN2Cc2ccc(C(C)C)cc2)cc1OC (stereo unspecified)
2 | 9 | 0.5 | Cc1[nH]c2ccccc2c1C(=O)C(=O)NCc1nnnn1-c1ccc(F)c(F)c1
5 | 14 | 2.2 | O=C(Cc1cccnc1)N1CC(=O)N2[C@H](CO)[C@H](c3ccc(C#CC4CC4)cc3)[C@@H]2C1
7 | 18 | -3.0 | O=C(c1cccnc1)N1CCCCN2[C@H](CO)[C@@H](c3ccc(C#Cc4ccccn4)cc3)[C@@H]2C1
-26 | -30 | -7.6 | CCOC(=O)C1=CCN(S(=O)(=O)c2ccc(Br)cc2)C1c1ccccc1 (stereo unspecified)

Record cards, as listed above.
Shown for `CCOC(=O)C1=CCN(S(=O)(=O)c2ccc(Br)cc2)C1c1ccccc1` (stereo unspecified) : Ecoli rRNA inh = -26; Ecoli rRNA inh OD600 = -30; Ecoli rRNA inh RFP = -7.6
Shown for `O=C(C[C@H]1C=C[C@H](NS(=O)(=O)c2cccc(F)c2)[C@H](CO)O1)N1CCCCC1` : Ecoli rRNA inh = -1; Ecoli rRNA inh OD600 = 0; Ecoli rRNA inh RFP = -2.0
Shown for `CO[C@@H]1CN(C)C(=O)c2cc(NC(=O)C3CCOCC3)ccc2OC[C@H](C)N(Cc2nccs2)C[C@H]1C` : Ecoli rRNA inh = 2; Ecoli rRNA inh OD600 = -2; Ecoli rRNA inh RFP = -2.2

Screens as filed in PubChem BioAssay.

These rows are one share of the data. The share of hits here may be higher or lower than overall.
